RmlCD inh 1536: inhibitors of Mycobacterium tuberculosis RmlC and RmlD coupled enzymes; P9WH09+P9WH11; RmlC+RmlD coupled enzyme assay, percent inhibition; primary screen in compound mixtures; inhibition, % at 3.6 µM; actives 0.03% (n = 160,000); in the data active = inhibition mostly above about 34%, no sharp cut-off; only retested compounds are shown here; also: some results filed as inactive read as strong as hits
Target sequence (P9WH09 whole entry, looked up): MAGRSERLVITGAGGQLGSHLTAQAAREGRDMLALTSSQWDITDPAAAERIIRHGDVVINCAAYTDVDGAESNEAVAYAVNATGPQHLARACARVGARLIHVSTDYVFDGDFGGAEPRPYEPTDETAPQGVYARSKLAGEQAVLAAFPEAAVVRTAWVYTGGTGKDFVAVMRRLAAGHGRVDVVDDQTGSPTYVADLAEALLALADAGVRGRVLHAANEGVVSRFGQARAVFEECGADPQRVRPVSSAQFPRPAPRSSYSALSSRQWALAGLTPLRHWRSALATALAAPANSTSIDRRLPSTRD
Target sequence (P9WH11 whole entry, looked up): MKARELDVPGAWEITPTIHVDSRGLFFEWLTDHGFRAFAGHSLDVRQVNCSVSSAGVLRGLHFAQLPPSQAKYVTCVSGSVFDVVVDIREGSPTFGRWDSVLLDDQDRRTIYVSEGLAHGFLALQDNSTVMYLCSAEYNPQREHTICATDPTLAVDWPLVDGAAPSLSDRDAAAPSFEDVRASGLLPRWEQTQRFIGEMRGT
RmlCD inh 1536 retest: also measured in RmlCD inh 1536; calls as there; inhibition, %; measured here: mean retest inhibition;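 single compounds in two wells; values far above 100% likely come from compound fluorescence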
The depositor's hits bear a star.

SMILES | RmlCD inh 1536 | RmlCD inh 1536 retest
Cc1cc(C)nc(NS(=O)(=O)c2ccc(NC(=O)C3(c4ccccc4)CCCC3)cc2)n1 | 102 | -12
CN(Cc1nc(-c2ccccn2)no1)S(=O)(=O)c1ccccc1 | 85 | 4
Cc1ccc(SCC(=O)N(C)C2CCS(=O)(=O)C2)cc1 (configuration not stated) | 44 | 1
COc1ccc(/C=N/NC(=O)c2ccc(Cn3cc([N+](=O)[O-])cn3)o2)cc1O | 48 | -6
COc1ccc(C(=O)NCCSCc2ccccc2)cc1OC | 88 | 0
COc1ccc2nc(Cl)cc(Cl)c2c1 | 55 | -10
C/C(=N\N1CCN(c2ccc(Cl)cc2)CC1)c1ccco1 | 41 | 12
Cc1nnc(SC(C)C#N)n1-c1ccccc1 (configuration not stated) | 52 | -8
N#C/C(=C\c1ccc(Cl)cc1)C(=O)Nc1cccnc1 | 49 | -3
CCCNC(=O)[C@H](C)NC(=O)c1ccc(Br)cc1 | 76 | -15
O=C(NCCOc1ccc2ccccc2c1)c1cncc(Br)c1 | 37 | -4
C=CCN=C(CC)C1=C(O)CCCC1=O | 38 | -12
Cc1ccc(/C=C/C(=O)Nc2ncc(C)s2)o1 | 32 | -1
Cc1ccc(CNC(=O)CSc2nc(C)cs2)cc1 | 35 | 4
Cc1cc(C)nc(N2CCN(C(=O)CCC(=O)Nc3nnc(CC(C)C)s3)CC2)n1 | 57 | -11
O=c1[nH][nH]c(-c2ccccc2)c1C=Nc1ccc(OC(F)(F)F)cc1 | 34 | -24
Cc1c(NC(=O)COc2cccc3c2OC(C)(C)C3)c(=O)n(-c2ccccc2)n1C | 34 | -9
Cc1ccccc1Nc1sc(C(=O)Nc2cccc(Cl)c2)c(N)c1C(N)=O | 31 | -9
COc1ccc2nc(Sc3c([N+](=O)[O-])nc(C)n3Cc3ccccc3)[nH]c2c1 | 33 | -13
COC(=O)c1ccc(C(=O)OC)c(NC(=O)C(C)C)c1 | 34 | -3
CCN(CC)CCN(Cc1cc2cc(C)cc(C)c2[nH]c1=O)C(=S)NCc1ccco1 | 33 | 2
O=C(NCCc1nnc2ccc(NCc3ccc(F)cc3)nn12)c1ccccc1 | 32 | -7
O=C(NC1(N2CCOCC2)CC1)c1ccc(Cl)cc1 | 56 | -19
CN1CCN(C(=O)CSc2nc(-c3cccs3)ccc2C#N)CC1 | 85 | 9
COc1ccccc1N1CCN(Cc2cn[nH]c2-c2ccc(F)cc2)CC1 | 67 | -2
O=[N+]([O-])c1nn(-c2ccccc2)[n+]([O-])c1N1CCN(c2ccccc2)CC1 | 65 | 2
O=C(COC(=O)c1ccccc1Br)NCCc1ccc(F)cc1 | 46 | 7
CC1=C(C#N)c2nc(N)c(C#N)c(C)c2/C1=C\c1ccc(OCC(=O)O)c(Cl)c1 | 38 | 5
Cc1ccc(CSc2nnc(-c3ccco3)o2)cc1 | 57 | 9
CCC12CSc3nc(Cl)ccc3N1C(=O)C(=O)N2C (configuration not stated) | 31 | 1
O=S(=O)(c1ccccc1C(F)(F)F)N1C=CC(C(F)(F)F)=NCC1 | 55 | -4
Cc1cc(N2CCCC2)nc2c(C)cccc12 | 63 | -9
O=[N+]([O-])c1ccc(Oc2cccc(C(F)(F)F)c2)nc1 | 39 | -14
Cc1cccc(N2CC(O)(c3cccs3)[N+]3=C2CCCC3)c1 (configuration not stated) | 82 | 8
CC(C)OC(=O)CSc1nnc2c(n1)[nH]c1ccc(F)cc12 | 51 | 7
Cc1ccccc1CSc1nnc(C)c(=O)n1N | 97 | 5
COc1ccc(C2C(C(=O)Nc3cc(OC)c(OC)c(OC)c3)c3ccccc3C(=O)N2C)cc1 (configuration not stated) | 65 | 11
CCOC(=O)C(CC)(CC)C(=O)/C=C/c1ccc(OC)cc1 | 31 | 3
COc1ccc(-c2[nH]ncc2CN2CCC(c3ccncc3)CC2)cc1F | 41 | 4
O=C(CN1CCCCC1)c1ccc(F)cc1 | 93 | -9
Cc1cc(=O)[nH]c(SCC(=O)Nc2cc(S(=O)(=O)N3CCCC3)ccc2Cl)n1 | 44 | -10
NC(=S)N=Nc1c(O)n(CCCl)c2ccccc12 | 46 | 9
CCOC(=O)/C(C#N)=C/Nc1ccccc1NS(=O)(=O)c1ccc(C)c(C)c1 | 35 | 8
NNC(=O)CNC(c1ccccc1)c1cc(Br)ccc1NC(=O)c1ccc(Br)cc1 (configuration not stated) | 60 | -5
CN1CCN(c2ccc(C(=O)c3ccc(F)cc3)cc2)CC1 | 56 | -7
C/C(Cn1nc([N+](=O)[O-])cc1C)=N\NC(=O)COc1ccc(Cl)cc1Cl | 37 | -3
COC(=O)c1ccc(Oc2nc(NC(C)(C)C)nc(N3CCOCC3)n2)cc1 | 38 | -4
C=CC[n+]1c(-c2ccc(C)cc2)csc1Nc1ccc(NC(C)=O)cc1 | 33 | 4
NC(=O)CSc1nnnn1-c1ccccc1Cl | 57 | 1
CCCc1nc2sc3ccccc3c(=O)c2c(=O)n1CCOC | 62 | 8
Next results:
SMILES | RmlCD inh 1536 | RmlCD inh 1536 retest
CCCCn1c(O)c(C(=O)/C=C/c2ccc3c(c2)OCO3)c(=O)[nH]c1=O | 31 | 6
Cc1cc(N/N=C/c2ccccc2)nc(N2CCOCC2)n1 | 78 | 14
CCCN1C2CCCC1CC(NC(=S)Nc1cc(C)cc(C)c1)C2 (configuration not stated) | 96 | -18
COc1c(/C=N/NC(=O)c2ccncc2)c(CCN(C)C(C)=O)cc2c1OCO2 | 65 | -23
Cc1ccc(C)c(SCC(=O)OCC(=O)Nc2ncc(C(F)(F)F)cc2Cl)c1 | 107 | 9
CCOC(=O)CCC(=O)Nc1ccc([N+](=O)[O-])cc1C | 40 | -1
C[C@H](NC(=O)c1ccc(Cl)cc1)C(=O)NCCc1ccc(S(N)(=O)=O)cc1 | 59 | 17
CCOC(=O)N1CCC(Nc2c(Nc3ccc(F)cc3)c(=O)c2=O)CC1 | 56 | 6
O=C(CCC1CCCCC1)NCc1ccccn1 | 38 | 7
CC(C)N=C(NS(=O)(=O)c1ccccc1)C(Cl)(Cl)Cl | 42 | 3

Grouped by structure: those above with a cyano group (five)
SMILES | RmlCD inh 1536 | RmlCD inh 1536 retest
Cc1nnc(SC(C)C#N)n1-c1ccccc1 (configuration not stated) | 52 | -8
N#C/C(=C\c1ccc(Cl)cc1)C(=O)Nc1cccnc1 | 49 | -3
CN1CCN(C(=O)CSc2nc(-c3cccs3)ccc2C#N)CC1 | 85 | 9
CC1=C(C#N)c2nc(N)c(C#N)c(C)c2/C1=C\c1ccc(OCC(=O)O)c(Cl)c1 | 38 | 5
CCOC(=O)/C(C#N)=C/Nc1ccccc1NS(=O)(=O)c1ccc(C)c(C)c1 | 35 | 8

Continuation.
SMILES | RmlCD inh 1536 | RmlCD inh 1536 retest
CC(=O)OCC1OC(n2ncc(=O)n(Cc3ccccc3)c2=O)C(OC(C)=O)C1OC(C)=O (configuration not stated) | 70 | 3
CCOC(=O)N/N=C/c1cn(Cc2ccc(F)cc2)c2ccccc12 | 93 | -6
O=C1NC(=O)C(=Cc2coc3ccccc3c2=O)C(=O)N1 | 40 | 1
Fc1ccc(N2CCN(Cc3c[nH]c4ccccc34)CC2)cc1 | 100 | 11
Cc1ccc(S(=O)(=O)Nc2nc(-c3ccc(F)cc3)cs2)cc1 | 37 | -5
COc1cc(OC)c(NC(=S)Nc2cccc(C)c2)cc1Cl | 47 | -5
CCn1c(C)cc(/C=C2/NC(=O)N(c3ccccc3)C2=O)c1C | 94 | 4
Cc1cc(C(=O)N/N=C/c2cccc([N+](=O)[O-])c2O)n[nH]1 | 66 | -1
COC(=O)Cc1csc(Nc2ccc(Cl)cc2)n1 | 40 | 9
CCc1nnc(NC(=O)CCC(=O)N2CCN(c3ccccn3)CC2)s1 | 33 | -12
CCOC(=O)NC(=O)/C(N=Nc1cc(C)cc(C)c1)=C(\C)O | 109 | -6
COc1ccc(C(=O)NCS(=O)(=O)c2ccc(C)cc2)cc1 | 97 | 7
O=c1c(Cl)c2oc3ccccc3nc-2c2ccccc12 | 59 | -8
CCn1ncc(Br)c1C(=O)Nc1cc([N+](=O)[O-])ccc1C | 43 | -5
Cc1ccc(S(=O)(=O)N2CCCCC2)cc1NC(=O)C1CCCO1 (configuration not stated) | 66 | -10
CCOC(=O)CSc1nnc(NC(=O)NC(C)C)s1 | 67 | -6
Cc1ccnc(SCC(=O)c2cccc([N+](=O)[O-])c2)n1 | 37 | -7
COc1cc(/C=N/N=C2\CC3CCC2(C)C3(C)C)ccc1O (configuration not stated) | 61 | -1
O=C(CSCc1ccc(Br)cc1)NC1CC1 | 33 | 0
COc1ccc(NCc2nc3ccccc3n2CCOc2ccc(C)cc2)cc1 | 46 | 7
COC(=O)c1cc(NC(=O)c2ccc(C)cc2)c(=O)oc1C | 52 | -12
CCC(C)N1C(=O)/C(=C\c2cc3c4c(c2)CCCN4CCC3)C(=O)NC1=S (configuration not stated) | 108 | -10
COc1cc(CC(=O)OCC(=O)NC2CC2)cc(OC)c1OC | 50 | -22
COC(=O)c1c(-c2ccccc2)csc1NC(=O)c1c(-c2ccccc2)noc1C | 45 | 2
Cn1nnc(C(O)CNCc2ccc(Cl)cc2)n1 (configuration not stated) | 46 | 8
CS(=O)(=O)N1CCCC(C(=O)c2cccc(Cl)c2)C1 (configuration not stated) | 36 | 1
Cc1cc(C)cc(C(=O)Nc2nnc(SCC(=O)N3CCCc4ccccc43)s2)c1 | 47 | -6
Cc1ccc(NC(=O)COC(=O)/C=C/c2ccc(Br)o2)cc1S(=O)(=O)N(C)C | 55 | -9
CC(=O)c1cc2c(cc1NC(=O)c1ccco1)OCCO2 | 36 | -9
Cc1ccc(-n2c(SCC(=O)Nc3cccc(S(=O)(=O)NC4=NCCCCC4)c3)nc3ccccc3c2=O)cc1 | 45 | 9
Cc1nn(-c2ccccc2)c(N)c1N=Nc1cccc(S(=O)(=O)N2CCOCC2)c1 | 45 | -11
CC(Sc1nc(N)c2c3c(sc2n1)CSC(C)(C)C3)C(=O)Nc1ccccc1 (configuration not stated) | 31 | -12
NC1=C(O)C(=O)C(c2ccccc2)O1 (configuration not stated) | 84 | -3

20 structures already listed, sorted by molecular weight, lowest first.
SMILES | RmlCD inh 1536 | RmlCD inh 1536 retest
NC1=C(O)C(=O)C(c2ccccc2)O1 (configuration not stated) | 84 | -3
Cn1nnc(C(O)CNCc2ccc(Cl)cc2)n1 (configuration not stated) | 46 | 8
Cc1ccnc(SCC(=O)c2cccc([N+](=O)[O-])c2)n1 | 37 | -7
COc1cc(/C=N/N=C2\CC3CCC2(C)C3(C)C)ccc1O (configuration not stated) | 61 | -1
COC(=O)c1cc(NC(=O)c2ccc(C)cc2)c(=O)oc1C | 52 | -12
CS(=O)(=O)N1CCCC(C(=O)c2cccc(Cl)c2)C1 (configuration not stated) | 36 | 1
CCOC(=O)CSc1nnc(NC(=O)NC(C)C)s1 | 67 | -6
CCOC(=O)NC(=O)/C(N=Nc1cc(C)cc(C)c1)=C(\C)O | 109 | -6
COc1ccc(C(=O)NCS(=O)(=O)c2ccc(C)cc2)cc1 | 97 | 7
COc1cc(CC(=O)OCC(=O)NC2CC2)cc(OC)c1OC | 50 | -22
Cc1ccc(S(=O)(=O)N2CCCCC2)cc1NC(=O)C1CCCO1 (configuration not stated) | 66 | -10
CCn1ncc(Br)c1C(=O)Nc1cc([N+](=O)[O-])ccc1C | 43 | -5
CCC(C)N1C(=O)/C(=C\c2cc3c4c(c2)CCCN4CCC3)C(=O)NC1=S (configuration not stated) | 108 | -10
COc1ccc(NCc2nc3ccccc3n2CCOc2ccc(C)cc2)cc1 | 46 | 7
COC(=O)c1c(-c2ccccc2)csc1NC(=O)c1c(-c2ccccc2)noc1C | 45 | 2
Cc1nn(-c2ccccc2)c(N)c1N=Nc1cccc(S(=O)(=O)N2CCOCC2)c1 | 45 | -11
CC(Sc1nc(N)c2c3c(sc2n1)CSC(C)(C)C3)C(=O)Nc1ccccc1 (configuration not stated) | 31 | -12
Cc1cc(C)cc(C(=O)Nc2nnc(SCC(=O)N3CCCc4ccccc43)s2)c1 | 47 | -6
Cc1ccc(NC(=O)COC(=O)/C=C/c2ccc(Br)o2)cc1S(=O)(=O)N(C)C | 55 | -9
Cc1ccc(-n2c(SCC(=O)Nc3cccc(S(=O)(=O)NC4=NCCCCC4)c3)nc3ccccc3c2=O)cc1 | 45 | 9

Some of the compounds tested, so the mix of outcomes need not match the whole.
